Compound activity as filed in PubChem BioAssay.
KCNQ2 pot – KCNQ2 (rat) channel potentiation. CHO-K1 KCNQ2, FluxOR thallium flux fluorescence; hits give high values. O88943. hit rate 0.54% among 310,000. B-score at 10 µM;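 active = fluorescence ratio B-score at least 3 SD of library B-scores, with initial fluorescence B-score within 3 SD, cut at about 5.3 in these data; same plate scores as AID 2156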;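 note: B-score of peak minus minimum over baseline fluorescence ratio after K+ and Tl+ stimulus; positive B-score means potentiation of KCNQ2 with more thallium influx and brighter signal; only the inactives scoring about 0 or higher are listed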
Target sequence (O88943 whole entry, looked up): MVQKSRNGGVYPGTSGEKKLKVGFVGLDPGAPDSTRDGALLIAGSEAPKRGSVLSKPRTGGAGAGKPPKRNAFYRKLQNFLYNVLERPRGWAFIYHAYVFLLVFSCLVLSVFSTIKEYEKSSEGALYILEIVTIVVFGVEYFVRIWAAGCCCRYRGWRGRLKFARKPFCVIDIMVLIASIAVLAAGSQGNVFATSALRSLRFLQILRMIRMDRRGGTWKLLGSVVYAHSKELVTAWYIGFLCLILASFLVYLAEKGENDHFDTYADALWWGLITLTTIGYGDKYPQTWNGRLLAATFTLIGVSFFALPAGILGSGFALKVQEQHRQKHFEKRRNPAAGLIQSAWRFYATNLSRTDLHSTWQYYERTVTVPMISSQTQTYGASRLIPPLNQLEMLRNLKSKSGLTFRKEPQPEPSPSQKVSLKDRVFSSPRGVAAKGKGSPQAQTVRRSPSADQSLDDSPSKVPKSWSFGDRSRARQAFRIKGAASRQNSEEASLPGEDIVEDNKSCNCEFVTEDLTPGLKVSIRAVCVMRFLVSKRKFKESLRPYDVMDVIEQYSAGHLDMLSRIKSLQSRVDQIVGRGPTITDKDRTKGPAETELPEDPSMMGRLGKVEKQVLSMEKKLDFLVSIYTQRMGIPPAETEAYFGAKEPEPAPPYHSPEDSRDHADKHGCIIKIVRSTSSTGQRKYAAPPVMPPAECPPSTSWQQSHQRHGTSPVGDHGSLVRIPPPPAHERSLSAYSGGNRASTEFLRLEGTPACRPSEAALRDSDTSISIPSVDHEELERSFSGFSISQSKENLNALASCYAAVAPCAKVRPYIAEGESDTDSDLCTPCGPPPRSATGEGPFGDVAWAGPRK
KCNQ2 pot baseline – second read-out of KCNQ2 pot, no call of its own (marks repeat the call); B-score; compound at 10 µM; measured here: initial fluorescence intensity artifact check;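 brightness before thallium and not channel activity; 0 = typical well and far values either way flag optical interference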
* = called active by the depositor; & = joins results of further samples. The list is partial, so the mix of outcomes need not match the whole.

SMILES	KCNQ2 pot	KCNQ2 pot baseline
CCN1CCN(c2ccc([N+](=O)[O-])cc2S(=O)(=O)N2CCOCC2)CC1	1.7	0.12
COc1ccc(N2C(=NC(=O)c3ccccc3)SC3CS(=O)(=O)CC32)cc1 (stereo not drawn)	0.3	2.4
COC(=O)C1=CN(C)C=C(C(=O)OC)C1c1ccc(Cl)cc1Cl	0.64	0.23
COc1ccc(C2C(C(=O)NCCN(C)C)c3cc(OC)c(OC)cc3C(=O)N2C)cc1OC (stereo not drawn)	0.08	1.1
COc1ccc(N2C(=O)CSC2c2cccc(OC)c2OC)cc1 (stereo not drawn)	0.05	-0.35
CCOC(=O)c1c(N)n[nH]c1-c1ccc(OC)cc1	0.3	-0.44
CCc1cc(CC)c(/C=N/NC(N)=O)c(CC)c1/C=N/NC(N)=O	3.7	-0.03
CCc1ccccc1NC(=O)c1cc(-c2ccco2)on1	0.03	0.74
CCOC(=O)CSc1nnc(CSc2nc3ccccc3s2)n1C	2.3	-0.77
Cn1c2c(c(O)c(-c3ccccc3)c1=O)C(=O)CC(C)(C)C2	1.1	-0.28
CCn1c(C)nnc1SCC(=O)Nc1ccccc1OC	0.32	0.26
COc1cccc(N2C(=O)C3CCCN3C2c2ccc(Cl)cc2)c1 (stereo not drawn)	1.7	0.63
COc1ccc(-n2nnnc2-c2cn(C)nc2C(F)(F)F)cc1	0.68	1.7
CCOc1ccc2c(c1)C(c1cccs1)=NNC(c1cccnc1)=N2	1.3	-0.96
C(=N\NC1=NCCN1)/c1ccncc1	1.4	-1.2
CCCC(=O)N1CCN(c2ccc(NC(=O)C(C)(C)C)cc2Cl)CC1	0.03	-0.19
Cc1c(C(=O)O)c(-c2ccccc2)nn1-c1ccccc1	0.16	0.77
COc1cc(/C=C2/SC(=S)N(c3c(C)n(C)n(-c4ccccc4)c3=O)C2=O)ccc1O	0.52	-2.4
O=C(Nc1c[nH]c2c(Cl)cccc2c1=O)N1CCN(c2ccccn2)CC1	1.2	-0.73
CC(=O)Oc1ccc(C2(C)CC(C)(C)NC(=S)N2C)c(OC(C)=O)c1 (stereo not drawn)	1.4	-1.1
CC(C)(C)n1nc2c(c1NC(=O)C1CC(=O)N(c3ccc(Cl)cc3)C1)CS(=O)(=O)C2 (stereo not drawn)	0.49	0
COc1ccc(CCNC(=O)CC(Cc2ccccc2)C(=O)O)cc1OC (stereo not drawn)	2	-0.49
CCOC(=O)c1[nH]c(C)c(C(=O)OCC(=O)N2CCCCC2C)c1C (stereo not drawn)	2.3	-0.7
COc1cccc(Nc2nnc(SCc3nc4ccccc4s3)s2)c1	0.33	0.25
Cc1cccn2cc(CCNS(=O)(=O)c3ccc4c(c3)OCCO4)nc12	0.47	0.89
Cc1cc(NC(=O)CSc2nnc(Cc3ccccc3)n2C)no1	0.54	-2.6
O=C(NC(NC(=S)Nc1cccc(C(=O)O)c1)C(Cl)(Cl)Cl)OCc1ccccc1 (stereo not drawn)	0.94	1.4
N=c1c[n+](N2CCOCC2)[n-]o1	0.79&0.16	-0.01&0.39
O=C(COC(=O)c1ccco1)Nc1ccc2c(c1)OCCO2	1.3	-1.6
CN1CCN(C(=O)c2cc3nc(-c4ccc(Cl)cc4)cc(C(F)(F)F)n3n2)CC1	0.57	0.25
COc1ccc([N+](=O)[O-])cc1NC(=O)CCN1CCN(c2ccccc2OC)CC1	0.63	1
COc1cccc(NC(=O)CSc2nncn2N)c1	0.03	-1.7
Cc1ccc(-n2ncc3c2CC(C)(C)CC3NC(=O)Cc2c(C)noc2C)cc1 (stereo not drawn)	0.26	-0.05
CC(C)OC(=O)CC1C(=O)NCCN1C(=S)NC(=O)c1ccccc1Cl (stereo not drawn)	2.1	0.24
O=C(Nc1ccc(N2CCN(C(=O)c3ccc(Cl)cc3)CC2)cc1)c1ccc(Br)o1	0.11	-0.15
O=C1c2ccccc2NC(c2ccc(F)cc2)N1Cc1ccco1 (stereo not drawn)	0.53	-0.18
Cc1c(NC(=O)c2cc3c(=O)n4ccccc4nc3s2)c(=O)n(-c2ccccc2)n1C	0.24	0.06
COc1ccc(C2NC(=O)NC(c3ccccc3)=C2c2nc3ccccc3s2)cc1 (stereo not drawn)	2	1.5
C/C(=N\NC(=O)Cn1c(-c2ccccn2)nc2ccccc21)c1ccccc1	1.2	-1.6
COc1cc(C(=O)Nc2c(C(=O)O)[nH]c3ccccc23)cc(OC)c1OC	0.19	1.1
CCN(Cc1ccccc1)Cc1c(C)[nH]c2c(C)c(C)ccc2c1=O	1.2	-1.3
FC(F)(F)c1nc2ccccc2nc1N/N=C\c1ccccc1	0.04	0
CC12CCC(C(=O)Nc3ccc4c(c3)OCCO4)(OC1=O)C2(C)C (stereo not drawn)	1.3	1
CCOCCCNC(=O)C(c1ccccc1)N(Cc1ccc2c(c1)OCO2)C(=O)c1ccccc1O (stereo not drawn)	1.2	-0.88
CC(OC(=O)CCN=C1NS(=O)(=O)c2ccccc21)C(=O)Nc1ccccc1F (stereo not drawn)	0.3	0.01
Cc1ccc(C(=O)OCC(=O)Nc2ccc3[nH]c(=O)[nH]c3c2)o1	0.12	-0.03
COC(=O)c1ccc(N2CCN(C)CC2)c(NC(=O)c2cccnc2)c1	0.53	-0.32
COc1ccc(C)c2sc(=NC(=O)c3ccccc3)n(C)c12	1.5	-1.7
COC(=O)CS(=O)(=O)c1cc(Br)cc2c1N(C(C)=O)CC2	0.1	2.4
CCOc1cc2[nH]c(=O)n(CCC(=O)NCc3ccc(OC)cc3)c(=O)c2cc1OCC	0.01	0.66

Part of the list above, as labelled records.
COc1ccc(C2C(C(=O)NCCN(C)C)c3cc(OC)c(OC)cc3C(=O)N2C)cc1OC (stereo not drawn)
- KCNQ2 pot = 0.08
- KCNQ2 pot baseline = 1.1

CCOc1ccc2c(c1)C(c1cccs1)=NNC(c1cccnc1)=N2
- KCNQ2 pot = 1.3
- KCNQ2 pot baseline = -0.96

COC(=O)C1=CN(C)C=C(C(=O)OC)C1c1ccc(Cl)cc1Cl
- KCNQ2 pot = 0.64
- KCNQ2 pot baseline = 0.23

Cc1ccc(-n2ncc3c2CC(C)(C)CC3NC(=O)Cc2c(C)noc2C)cc1 (stereo not drawn)
- KCNQ2 pot = 0.26
- KCNQ2 pot baseline = -0.05

New compounds follow
SMILES	KCNQ2 pot	KCNQ2 pot baseline
CC(C)CC(=O)NC(=S)Nc1sc2c(c1C(N)=O)CCC2	0.08	1.7
CC(C)CC(=O)N1CCN(Cc2cccc([N+](=O)[O-])c2)CC1	1.7	0.17
COc1ccc(NC(=O)N2CCC(NC(=O)c3ccco3)CC2)cc1	0.25	0.78
Cc1cccc(NS(=O)(=O)c2nnc(NC(=O)c3ccc(Cl)cc3)s2)c1	0.12	0.6
O=S1(=O)CC(O)C(N=Nc2c(O)n(Cc3ccccc3)c3ccccc23)C1 (stereo not drawn)	1.1	0
Cn1c(=O)c(-c2ccccc2)c(O)c2ccccc21	0.3	1.1
CCn1cnc2sc(C(=O)N3CCN(Cc4ccc5c(c4)OCO5)CC3)c(C)c2c1=O	1.5	-0.84
COc1ccc(/C=N/Nc2ccc(C(F)(F)F)cc2[N+](=O)[O-])cc1	2.2	-0.08
CCc1cc(=O)oc2cc(C)cc(OC(C)C(=O)NCCN3CCOCC3)c12 (stereo not drawn)	0.07	-2.9
Cc1ccc(-n2cc3c(=O)n(C)c(=O)n(C)c3c2)cc1C	0.55	-1.4
COc1ccccc1/C=C(/C(=O)OCC(N)=O)c1ccccc1	1.2	-0.75
CCCNS(=O)(=O)/C=C/c1ccccc1	1.2	0.05
COc1ccc(NC(=O)C(CCS(C)(=O)=O)N2C(=O)c3ccccc3C2=O)cc1 (stereo not drawn)	0.47	0.91
O=[N+]([O-])c1cccc(CN2[C@@H](Cc3ccccc3)COCCS2(=O)=O)c1	0.51	1.4
Cc1ccc(N(Cc2ccc(C(=O)NCCSc3ccccn3)cc2)S(C)(=O)=O)cc1C	0.05	1.6
C=CCNC(=O)c1ccccc1NC(=O)COc1ccc(OC)cc1	0.49	0.11
COC(=O)c1ccc(-n2nnnc2SCC(=O)N2CCCCC2)cc1	0.01	-2
CC(=O)C1=C(C)N(Cc2ccccc2)C(=O)N[C@@H]1c1cccc(C(F)(F)F)c1	0.59	1
Cc1nc(N2CCN(C(c3ccccc3)c3ccccc3)CC2)[nH]c(=O)c1C	0.26	-1.4
COC(=O)/C(=C/c1cccc([N+](=O)[O-])c1)NC(=O)c1ccc(OC)cc1	0.87	-0.03

Exported with values ahead of the structure: entries from further up
| KCNQ2 pot | KCNQ2 pot baseline | Structure |
| --- | --- | --- |
| 0.47 | 0.91 | COc1ccc(NC(=O)C(CCS(C)(=O)=O)N2C(=O)c3ccccc3C2=O)cc1 (stereo not drawn) |
| 1.2 | -0.75 | COc1ccccc1/C=C(/C(=O)OCC(N)=O)c1ccccc1 |
| 0.59 | 1 | CC(=O)C1=C(C)N(Cc2ccccc2)C(=O)N[C@@H]1c1cccc(C(F)(F)F)c1 |
| 0.87 | -0.03 | COC(=O)/C(=C/c1cccc([N+](=O)[O-])c1)NC(=O)c1ccc(OC)cc1 |
| 0.01 | -2 | COC(=O)c1ccc(-n2nnnc2SCC(=O)N2CCCCC2)cc1 |

Further records
SMILES	KCNQ2 pot	KCNQ2 pot baseline
CC1CN(CC(O)COc2ccc(C(C)C)cc2)CC(C)O1 (stereo not drawn)	1.2	0.82
CCCCC12CN3CCN(CC(C3)/C1=N\NC(=O)c1ccccc1N)C2	0.01	-1.1
CCOc1ccc(-c2c[n+](=O)c3c(n2[O-])CCCC3)c(OCC)c1	1	0.92
O=C(NCCc1ccco1)C(=O)NCC1OCCCN1S(=O)(=O)c1cc(F)ccc1F (stereo not drawn)	0.68	-0.08
COc1cccc(NC(=O)CCS(=O)(=O)c2ccc3c(c2)oc(=O)n3C)c1	0.79	1.6
CC(C)(CNC(=O)c1ccc(Br)o1)N1CCOCC1	0.42	-0.52
Nc1nc(CSc2ncn(-c3ccccc3)n2)cs1	1.1	0.43
O=C(CCCSc1nnnn1-c1cccc2ccccc12)c1ccc(F)cc1	0.54	0.26
CC(=O)c1c(O)cc(O)c(C(C)=O)c1O	0.91	0.92
CC(NC(=O)c1ccccc1)C(=O)NC1=NCCS1 (stereo not drawn)	0.56	-0.3
O=C(Cc1ccc(N2CCNC2=O)cc1)N1CCCC(Nc2ccc(F)c(F)c2)C1 (stereo not drawn)	0.01	0.04
Cc1cc(C)c2c(CC(=O)N(CCC#N)Cc3cccnc3)coc2c1	0.65	0.4
CCCn1c(O)c(N=NC(=O)CNC(=O)c2ccncc2)c2ccccc21	1.5	-1.4
COc1cc(C(=O)N2CCN(c3ncnc4sc(C)c(C)c34)CC2)cc(OC)c1OC	0.99	-0.43
CCOC(=O)c1[nH]c2ccccc2c1NC(=O)C1CCCCC1	0.92	-1.6
CCC(=O)c1ccc(OCC(=O)OCC(=O)N(C)CC(=O)Nc2ccc(F)cc2)cc1	2.2	-0.13
O=C(NCCc1ccc(Cl)cc1)c1cnccn1	0.8	1.1
O=C(NCC1CCCO1)C1CCN(C(=O)c2ccc(Cl)cc2)CC1 (stereo not drawn)	1.1	0.58
COc1cccc(N2CCN(C(=O)c3ccc(CSc4nc5ccncc5[nH]4)cc3)CC2)c1	0.64	-0.18
CC(C)(C)n1cnc(C(N)=O)c1N	0.77	-0.72
CN=C(C)c1c(O)c2ccccc2oc1=O	1	-1.1
c1csc(C2=Nn3c(nnc3-c3ccncc3)SC2)c1	1	1
O=C(NN=C1c2ccccc2-c2ccccc21)c1ccccc1	0.83	1.4
CC(/C=N\NC(=O)c1ccc(C)nc1)=C\c1ccccc1	0.08	-0.78
CCc1ccc(CN2CCCC(CNC(=O)c3cc(OC)cc(OC)c3)C2)cc1 (stereo not drawn)	1.6	0.51
O=C(CNC(=S)NC(=O)c1ccc(Cl)cc1)c1ccccc1	0.62	1.9
CC(C)(C)C(=O)N1CCC(O)(CS(=O)(=O)Cc2ccccc2)CC1	0.17	-0.13
CCCCSc1nnc(-c2cc3c(C(F)(F)F)nn(C)c3s2)n1C	0.18	0.82
COc1ccc(OC)c(S(=O)(=O)Nc2cc3c4c(c2)C(C)C(=O)N4CCC3)c1 (stereo not drawn)	0.44	-1.4
Cc1ccc2nc(Cl)c(C3CC(c4cccs4)=NN3C(=O)CCC(=O)O)cc2c1 (stereo not drawn)	1.1	0.07
CCc1ccc(-c2nc(CS(=O)CC(=O)NC3CC3)c(C)o2)cc1 (stereo not drawn)	1.4	1.5
CCC1CCCCN1Cc1ccc(CNC(=O)CCc2nnc3ccc(N4CCCCC4)nn23)o1 (stereo not drawn)	0.91	-0.34
Cc1cc(C)n(-c2ccc(C(=O)OCc3nnc(-c4ccccc4)o3)cc2)n1	1.1	0.09
C=C(C)CSC1=C(C#N)C(c2ccccc2Cl)CC(=O)N1 (stereo not drawn)	1	1.3
COc1cc(CC(CC(=O)O)CC(C)OCc2ccccc2)cc(OC)c1 (stereo not drawn)	0.03	-0.27
Nc1ncc(Br)cc1S(=O)(=O)Nc1ccccc1F	0.47	-1.1
Cc1nnc(-n2cnc3ccccc32)c2ccccc12	0.56	-0.3
CC(=O)c1ccc(NC(=S)NCCc2cccc(Cl)c2)cc1	0.38	-0.86
COc1ccccc1-c1ccc(SCC(=O)Nc2cc(C)on2)nn1	1.1	0.33
COc1cccc(N(C(C)=O)c2nc(C)cc(C)c2C#N)c1	1.6	-0.51
CCC(C)NC(=O)c1ccc2c(Cl)c3c(nc2c1)CCC3 (stereo not drawn)	0.5	0.09
CC(NC(=O)c1cc(F)c(F)cc1Cl)c1ccncc1 (stereo not drawn)	0.88	-0.14
CCn1c(SCc2cccc(F)c2)nnc1-c1cccnc1	0.24	1.3
c1ccc(C2CC(c3ccccc3)n3c(nc4ccccc43)N2)cc1 (stereo not drawn)	0.37	-0.15
CCOC(=O)c1csc(NC(=O)CSc2nnnn2-c2ccc(OC)c(OC)c2)n1	0.16	-0.38
